NPYLR7 ag: mosquito NPYLR7 agonism; HEK293T NPYLR7/Galpha15, GCaMP6s calcium fluorescence; activation, % at 10 µM; actives 0.15% (n = 270,000); in the data active = activation above about 40%;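 also: 0% = vehicle and 100% = reference agonist at the receptor; some compounds past the cut are filed as inactive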
NPYLR7 ag max-min: also measured in NPYLR7 ag; calls as there; activation, %; measured here: Max-Min RFU normalised activation; some inactives read as strong as hits;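 span of the calcium signal over five minutes; 0% = vehicle and 100% = native peptide agonist; compound fluorescence can raise it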
* = called active by the depositor; & = joins results of further samples. Some of the compounds tested (hit frequency here may not be typical).

SMILES	NPYLR7 ag	NPYLR7 ag max-min
COc1ccc(C(=O)Nc2ccc(-n3nc(OCC(C)C)nc3-c3ccc(F)cc3)cc2)cc1	1	0
Cc1ccsc1CN1CCC(CNC(=O)Nc2ccccc2)C1 (stereo not given)	3	1
C=C1C(C)(C)[C@H]2CC[C@]1(c1n[nH]c(C3CC3)n1)C2	-3	-3
Cc1ccccc1OCC(=O)N1CCC(n2c(=O)[nH]c3ccccc32)CC1	-4	-8
C=CCN1CC(OC)CN(C(=O)c2ccccc2)CC1=O (stereo not given)	0	2
CN(C)c1nc2c(c(=O)[nH]1)CCN(C(=O)c1cccc3nccnc13)C2	9	5
Cc1n[nH]c(C)c1CN1CCN2CCNC(=O)C2C1 (stereo not given)	3	2
Cc1nn(C(=O)c2ccc(Cn3cnc([N+](=O)[O-])n3)o2)c(C)c1Br	4	2
CN1CC=C2C(C#N)C(=N)C(C#N)(C#N)C(c3ccc(Br)cc3)C2C1 (stereo not given)	32	21
CCc1[nH]n2c(=O)cc(C)nc2c1-c1ccccc1	2	2
COc1ccc2c(c1)OCC(C=C1N=C(c3ccc(F)cc3)OC1=O)=C2	3	9
C=CCn1c(SC(C(=O)NC(N)=O)C(C)C)nnc1C1CCCCC1 (stereo not given)	7	-1
CN(CCc1ccccc1)C1CCCN(C(=O)c2ncccc2O)C1 (stereo not given)	-3	7
CCCCN(C)C(=O)c1sc(=O)n(Cc2ccc(S(=O)(=O)N(C)C)cc2)c1C	-6	-3
Cc1nccn1CCNC(=O)CC(c1ccccc1)c1ccccc1F (stereo not given)	10	5
CCCn1c(SCc2cc(=O)n3c(C)csc3n2)n[nH]c1=O	7	8
CCN(CC)Cc1cnc2c(C(=O)NC(C)c3ccco3)cnn2c1 (stereo not given)	3	3
Cc1cc(-c2c(-c3ccccc3)ncn2CCCO)cc(C)c1O	24	7
Cc1cc(NCCCOc2c(C)cccc2C)n2ncnc2n1	3	0
CCOC(=O)c1c(NC(=O)CN2C(=O)c3ccccc3C2=O)sc2c1CCC2	-2&-8	-7&-4
CC(C)CN(CC(=O)N(Cc1ccccc1)Cc1cccn1Cc1ccc(F)cc1)S(=O)(=O)/C=C/c1ccccc1	1	13
Cc1c(C(=O)NCc2cccc(C(F)(F)F)c2)sc(=O)n1Cc1ccc(S(C)(=O)=O)cc1	2	0
Cc1onc(-c2ccccc2)c1C(=O)N1CCOC2(CNCCOC2)C1 (stereo not given)	6	6
COc1cccc(C(=O)N(CCCN2C(=O)c3cccc4cccc(c34)C2=O)c2ccccc2)c1	5	8
CC(=O)N1CCC(NC(=O)Nc2ccccc2F)CC1	11	5
CCN(CC)S(=O)(=O)c1ccc(C(=O)NCCSc2c(C)[nH]c3ccccc23)cc1	0	21
CCN(Cc1ccccc1)S(=O)(=O)c1c(C)n(C)c(=O)n(C)c1=O	-2	-1
NC(=O)CN(Cc1ccc(Br)cc1)C(=O)C1=Cc2cc(Cl)ccc2OC1	3	3
CC(Cc1ccc(F)cc1)NC(=O)N1CCCN(C(C)(C)C)CC1 (stereo not given)	-3	-3
CC1CCC(N)C(N2CCc3ccccc3C2)C1 (stereo not given)	-3	-9
Cc1cccc(C2(CNC(=O)Cn3cncn3)CCCCC2)c1	2	-3
CC(=O)N(CCN(C)C)Cc1csc(COc2cccc(C)c2)n1	0	-5
Cc1cc(NC(=O)NCCc2cn3ccccc3n2)ccc1N(C)C	4	4
CS(=O)c1nncn1CC(=O)NC1CCCCCCC1 (stereo not given)	2	-2
COc1ncccc1-c1ccc2sc(N)nc2c1	6	3
CN(Cc1ccccc1)C(=O)COC(=O)c1cc(=O)c2ccccc2[nH]1	4	1
COCCN(C(=O)C1CCC1)c1ccccc1CNC(=O)C1CCC1	3	0
CC12C=CC(O1)C1C(=O)N(c3ccccc3C#N)C(=O)C12 (stereo not given)	-2	-9
COc1ccc(NC(=O)c2sc(=O)n(CC(=O)c3ccc4c(c3)OCCO4)c2C)cc1OC	11	5
CC12CCC(C(=O)O)(c3nc4c(ccc5ncccc54)nc31)C2(C)C (stereo not given)	-1	-1

Grouped by structure, the compounds so far with bromine.
SMILES	NPYLR7 ag	NPYLR7 ag max-min
Cc1nn(C(=O)c2ccc(Cn3cnc([N+](=O)[O-])n3)o2)c(C)c1Br	4	2
CN1CC=C2C(C#N)C(=N)C(C#N)(C#N)C(c3ccc(Br)cc3)C2C1 (stereo not given)	32	21
NC(=O)CN(Cc1ccc(Br)cc1)C(=O)C1=Cc2cc(Cl)ccc2OC1	3	3

2 entries from above, with values under each structure:
Every second line gives: NPYLR7 ag	NPYLR7 ag max-min
Cc1cccc(C2(CNC(=O)Cn3cncn3)CCCCC2)c1
  2	-3
CC(=O)N(CCN(C)C)Cc1csc(COc2cccc(C)c2)n1
  0	-5

Next section
SMILES	NPYLR7 ag	NPYLR7 ag max-min
O=C(CN1C(=O)C(Oc2ccccc2)C1c1cccnc1)NCCn1cccc1 (stereo not given)	-2	5
Cc1ccc(C)c2sc(N(CCCN3CCOCC3)C(=O)c3ccco3)nc12	0	-1
CCN(CC(=O)N(C)C)C(=O)[C@H]1CCCCN1C(=O)OC(C)(C)C	0	-1
O=C(CSc1nc2ccccc2s1)N/N=C\c1ccc(O)cc1	-8	-13
COc1ccccc1NC(=O)CSc1ccc2nnc(-c3cccnc3)n2n1	-1	-2
COc1ccccc1-n1c(CNC(=O)c2ccc(C)c([N+](=O)[O-])c2)nnc1SCC(=O)Nc1nnc(C)s1	-6	3
Cc1cccc(NC(=O)CN2C(=O)NC(C)(CCc3ccccc3)C2=O)c1 (stereo not given)	2	-4
Cc1ccccc1N1CCN(C(=O)c2ccc(C(F)(F)F)cc2)C(C)C1=O (stereo not given)	12	15
Cc1cc(C(=O)N2CCN(C3CCCCC3)CC2)cc(S(N)(=O)=O)c1C	9	-6
C=Cc1ccc(CN2C(=O)C(C)Oc3c(C(C)=O)cccc32)cc1 (stereo not given)	5	2
Oc1ccccc1C1OCC(C2CC=CCC2)CO1 (stereo not given)	-2	-5
Cc1nc(N2CCN(C)CC2)ncc1C(=O)N1[C@@H]2CC[C@H]1CNC(=O)C2	-3	-8
Cc1nc(SCC(=O)C23CC4CC(CC(C4)C2)C3)nc(C)c1C	-2	-3
Cc1ccc(NC(=O)CSc2ncnc3sc(C)c(C)c23)c(C)c1	-3	-6
c1ccc(-c2ccc(-c3nccn3CCN3CCOCC3)s2)cc1	8	6
CNc1ccc(-c2ccc3c(c2)CCO3)cn1	5	1
c1ccc(CCc2nc(CCc3ccc4c(c3)OCO4)n[nH]2)cc1	0	4
COCCN(Cc1csc(COc2cccc(C)c2)n1)C(=O)c1ccc(OC)cc1	-1	7
O=C(NCC1(c2ccccc2)CCCC1)c1cn(Cc2ccccc2F)nn1	4	-1
CCCCc1ccc(CNC(=O)c2cc(-c3cc(OC)c(OC)c(OC)c3)nc3ccccc23)cc1	23	9

Brought forward from above: 3 compounds; new compounds follow.
SMILES	NPYLR7 ag	NPYLR7 ag max-min
COCCN(Cc1csc(COc2cccc(C)c2)n1)C(=O)c1ccc(OC)cc1	-1	7
O=C(NCC1(c2ccccc2)CCCC1)c1cn(Cc2ccccc2F)nn1	4	-1
CCCCc1ccc(CNC(=O)c2cc(-c3cc(OC)c(OC)c(OC)c3)nc3ccccc23)cc1	23	9
CCOc1ccccc1CN(CC)C(=O)c1nn(C)c(=O)c2ccccc12	-1	-8
Cc1cc(NC(=O)C(C)C)nc2c1c(=O)oc1ccccc12	1	-1
O=C(O)c1ccc(-c2cccc(-c3ccn[nH]3)c2)o1	27	17
CCOC(=O)c1c(N2C(=O)C3CC(C)=C(C)CC3C2=O)sc2c1CCCC2 (stereo not given)	-7	-10
Cc1cc(/C=C\c2ccccc2)c(C#N)c(=S)[nH]1	2	0
CC(C)=CC(=O)N1CCc2c(nc(C)nc2N2CCCC2)C1	-1	1
CCn1cc(C#N)c(=O)n(CC(=O)NC(C)c2cccc3ccccc23)c1=O (stereo not given)	17	9
COc1cccc(OC)c1C(=O)N1CCN(C(=O)CN2CCc3sccc3C2c2ccc(C)cc2)CC1C (stereo not given)	8	-2
CC(=O)Nc1nc(SCC(=O)N2CCCCC2)[nH]c(=O)c1NC(=O)c1ccc(F)cc1	-2	-3
CCOc1ccc(C2NC(=O)NC(C)=C2C(=O)OC2CCC(C)CC2)cc1 (stereo not given)	-1	-6
CC(C)(CN1CCCC1)Nc1nc(CCN)nc2ccccc12	24	10
O=C(C1CCC1)N1CCN(S(=O)(=O)C=Cc2ccccc2)CC1	6	6
Cc1cc(C(=O)N2CCN(Cc3ccc(-c4noc(-c5ccco5)n4)cc3)CC2)cc(Cl)n1	6	16
COc1ccc(OC)c(S(=O)(=O)N2CCN(S(=O)(=O)N3CCCCC3)CC2)c1	6	3
Cc1ccc(Cl)c(OC2CC3CCC(C2)N3C(=O)c2ccc(CSc3nc4cc(Cl)ccc4o3)cc2)c1 (stereo not given)	18	10
O=C(c1cc(-c2cccs2)nc2ccccc12)N1CCCc2ccccc21	-12	-16
Cc1noc(CN(C)Cc2nc(-c3cccc(Cl)c3)oc2C)n1	22	17
CC(NS(=O)(=O)c1ncn(C)c1Cl)c1cc(F)ccc1F (stereo not given)	1&-1	-1&0
C=CCn1cc(CN2CC(Oc3ccccc3C)C2)c(C)n1	1	1
CCn1c(C)c(C(=O)CN(C(=O)COc2ccccc2)C2CCCCC2)c(C)c1C(=O)OC	-14	-8

Entries of single compounds as entered above. Values in the order: NPYLR7 ag | NPYLR7 ag max-min
Record of C=Cc1ccc(CN2C(=O)C(C)Oc3c(C(C)=O)cccc32)cc1 (stereo not given) → 5 | 2
Record of CC(C)=CC(=O)N1CCc2c(nc(C)nc2N2CCCC2)C1 → -1 | 1
Record of O=C(C1CCC1)N1CCN(S(=O)(=O)C=Cc2ccccc2)CC1 → 6 | 6
Record of COc1ccc2c(c1)OCC(C=C1N=C(c3ccc(F)cc3)OC1=O)=C2 → 3 | 9
Record of O=C(NCC1(c2ccccc2)CCCC1)c1cn(Cc2ccccc2F)nn1 → 4 | -1

Remaining list, next part.
SMILES	NPYLR7 ag	NPYLR7 ag max-min
CC(C)(C)OC(=O)NC1CCN(C(=O)C2CCCCC2C(=O)N2CCc3c([nH]c4ccccc34)C2)C1 (stereo not given)	-10	-13
COCCN(Cc1csc(COc2ccc(C)c(C)c2)n1)C(=O)c1cccs1	-2	11
OC(CN1CCOCC1)CN1CCCC(Cn2cncn2)C1 (stereo not given)	2	1
CC(C)Nc1ccc(C(=O)Nc2ccc(Cl)cc2)cn1	3	0
CC1c2cc3c(cc2C2(CCCC2)CN1CC(=O)Nc1ccccc1C(=O)NC1CC1)OCCO3 (stereo not given)	7	0
CC(C)(C)NC(=O)Cc1ccc(NC(=O)C2(C)CC2(Cl)Cl)cc1 (stereo not given)	10	5
COc1nc(OC)nc(N2CC[C@@H](c3ccc4c(c3)OCO4)[C@H](O)C2)n1	8	9
CN(Cc1ccco1)C(=O)c1nn(C)c2c1CC(NCC1(c3ccccc3)CCOCC1)CC2 (stereo not given)	12	1
CC(=O)NCCc1cc2ccc(C)cc2[nH]c1=O	1	26
C=C(O)C(C(C)=O)(N1CCOCC1)N1CCOCC1	4	1
C=CCCC(=O)N1CCC(Cc2ccc(OC)cc2)CC1	0	3
Cc1ccc(NC(=O)CSc2nc3c(c(=O)[nH]2)CN(C(C)C)CC3)cc1Cl	-18	-16
Cc1cc2cc(CCNC(=O)Cc3ccccc3)c(=O)[nH]c2cc1C	3	11
CN(CC1COc2ccccc2O1)C(=O)c1cc(-c2cccc(Cl)c2)n[nH]1 (stereo not given)	7	6
O=C(NS(=O)(=O)c1ccc(Cl)cc1)C1CC1	-3	-6
Cc1ccc(-c2nc3scc(CCNC(=O)Cc4ccccc4)n3n2)cc1	23	22
Cc1ccc(-n2nc3c(c2NC(=O)c2ccc(C)c(C)c2)CS(=O)(=O)C3)c(C)c1	2	0
CC(=O)/C(CN1CCCCC1)=N\O	-12	-18
CC(C)N(CC(=O)N(CCc1c[nH]c2ccccc12)Cc1ccc(C(F)(F)F)cc1)C(=O)Nc1ccccc1F	20	17
O=C(Nc1ccc(-c2cscn2)cc1)C1CCCN(Cc2ccc3c(c2)CCO3)C1 (stereo not given)	21	6
Cc1nc(NCCNC(=O)Nc2ccc(C)c(F)c2)cc(N2CCCC2)n1	-2	-4
Cc1nc(CN2C[C@H]3OC(=O)N(CCCN4CCOCC4)[C@H]3C2)no1	10	2
Cc1csc2nc(O)c(C(=O)NCCOCCO)c(=O)n12	-1	8
COc1ccc(NC(=O)c2cc(C3CCCCN3C(=O)CCCc3ccccc3)on2)c(C)c1 (stereo not given)	-3	-5
Cn1c(=O)c2c(n(C)c1=O)n1c(-c3ccc(OCc4ccccc4)cc3)nnc1n2C	6	3
Fc1cccc(CN2CCCn3cccc3C2c2ccc(Cl)c(Cl)c2)c1F (stereo not given)	15	19
Cc1ccc(CC(=O)C(C#N)c2nc3sc(C)c(C)c3c(=O)[nH]2)cc1 (stereo not given)	4&7	3&5
CSC(=NCc1ccc(Cl)cc1Cl)C(C#N)C#N	4&4	3&6
O=C1Cc2cc(S(=O)(=O)N3CCc4ccccc43)ccc2N1	-4	0
Cc1cccc(C(=O)N2CCN(C(C(=O)Nc3cccc(Cl)c3)C3CCCC3)CC2)c1 (stereo not given)	-3	-3
CCCc1nc2c(=O)n(C)c(=O)nc-2n(C)n1	1	1
CCC(C)N(Cc1ccc(OS(=O)(=O)c2cccc(C(F)(F)F)c2)cc1)C(=O)c1ccccc1C (stereo not given)	12	19
OCC#Cc1ccc(CN2CCC3(CCCN(Cc4ccc(F)cc4)C3)C2)s1 (stereo not given)	6	3
CCc1nc(Cn2ccnc2-c2ccccc2Cn2cccn2)no1	2	2
COc1cn(CC(=O)NC(C)C)c(CSc2nc(C)cs2)cc1=O	-4	-5
COC(=O)c1sccc1S(=O)(=O)Nc1cccc(C=Cc2ccccn2)c1	-4	2
Cc1nc(NCc2cccc(Cl)c2Cl)n[nH]1	8	3
Cc1cccc(C(=O)NC(C)(C#N)Cn2cc(Br)cn2)n1 (stereo not given)	4&-10	0&-10
O=C1OCC(CO)(CO)N=C1NNc1ccc(Cl)cc1	-2	-3
CCCNC(=O)Cn1nc2c(c1NC(=O)C1CC(=O)N(c3ccc(F)cc3)C1)CSC2 (stereo not given)	-11	-14

Compound activity deposited in PubChem by Fisher Drug Discovery Resource Center.
